# Assay outcomes (PubChem BioAssay)
# Sa growth 42C = S. aureus growth inhibition | relative growth, % (test concentration not listed) | S. aureus RN4220 growth, OD600, 20 h, 42 °C; stronger effect = lower value | 170,000 compounds, 0.53% hits;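 active = growth at 42 °C up to 50% and 20 or more points under that at 30 °C, or under 10% at both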;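 note: 300 nL library stock went into each well; scaled to the means of positive and negative controls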
# HCMV UL50-53 inh = cytomegalovirus nuclear egress complex inhibition; HTRF UL50-UL53 interaction, normalized percent inhibition; inhibition, % (concentration not given with the values); 190,000 compounds, 0.15% hits; AID 1918969;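 active = both replicates at 50% or more, plus weaker picks with an unusually low signal ratio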;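 note: stock transfer was 100 nL into about 20 µL; 0% = negative control wells and 100% = wells with untagged competitor protein; inactives centre near -12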
# GIV Gai3 FP = GIV-Galpha-i interaction inhibition; Galpha-i3/FITC-GIV peptide fluorescence polarization, 90 min; stronger effect = lower value; scaled: aluminum fluoride 0%, vehicle 100%; percent of control (FP), % (no concentration beside the values); 210,000 compounds, 0.42% hits; AID 1224905;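 active = replicate mean at 85% of control or lower, very high polarization wells dropped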;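 note: wells of about 15 µL received 100 nL stock; the first replicate is given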
# Target sequence (P08753 whole entry, looked up): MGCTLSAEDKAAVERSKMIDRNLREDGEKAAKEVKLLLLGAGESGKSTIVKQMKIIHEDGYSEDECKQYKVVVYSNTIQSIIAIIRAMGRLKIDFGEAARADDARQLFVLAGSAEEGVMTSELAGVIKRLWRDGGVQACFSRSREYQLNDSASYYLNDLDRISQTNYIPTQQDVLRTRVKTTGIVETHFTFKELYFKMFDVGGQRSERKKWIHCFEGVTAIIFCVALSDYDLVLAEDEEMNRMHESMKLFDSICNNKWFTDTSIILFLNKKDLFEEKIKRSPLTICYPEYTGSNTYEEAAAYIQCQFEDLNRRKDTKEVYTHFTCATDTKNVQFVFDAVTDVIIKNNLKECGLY
# Sa growth 42C second temp = second read-out of Sa growth 42C, no call of its own (marks repeat the call); relative growth, %; measured here: growth at 30 °C;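 optical density after 20 h as mean of two plates; 100% = untreated growth and lower means inhibition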
# * hit, by the source's call; x = not tested or not shown; & = joins results of further samples.
SMILES,Sa growth 42C,Sa growth 42C second temp,HCMV UL50-53 inh,GIV Gai3 FP
CC(=O)NC(=O)c1cccc2cccc(I)c12,108,84,-32,100
CC1Oc2ccc(-c3csc(NC(=O)C(C)(C)C)n3)cc2N(C)C1=O (stereo not given),x,x,-8,99
CC1S/C(=N\NC(=O)CNc2cccc(Cl)c2)N(c2ccccc2)C1=O (stereo not given),79,86,-18,108
CC(NC(=O)CN1CCN(C(=O)c2cccs2)CC1)c1ccc(F)cc1F (stereo not given),96,95,-12,x
Cc1ccc(C)c(NC(=O)Cn2c(=O)n(CCCCC(=O)NC(C)C)c(=O)c3ccccc32)c1,x,x,-31,103
O=C(CN1C(=O)COc2ccc(C(=O)N3CCCC3)cc21)Nc1ccccn1,x,x,-20,100
O=C(Cc1ccc(Oc2ccccc2)cc1)c1ccccc1,104,92,-23,96
COc1ccc(-n2ncc3c(NCCC4=CCCCC4)ncnc32)cc1,119&88,98&81,-16,101&99
Fc1ccc(Nc2ncnc3c2nc2n3CCCCC2)c(F)c1,85,70,6,101&111
O=C1COc2ccc(S(=O)(=O)N3CCCC(C(=O)Nc4cccc(Cl)c4)C3)cc2N1 (stereo not given),x,x,-18,111
COc1ccccc1N=C(NO)C(=Nc1ccccc1OC)NO,96,89,-11,x
CC(C)NC(=O)CC(c1ccc(F)cc1)N1Cc2ccccc2C1=O (stereo not given),x,x,-3,103
Cc1ccccc1C(=O)Nc1ccc2nc(SCC(=O)N3CCc4ccccc43)sc2c1,93,91,14,102
COc1cccc(N2CCN(C(=O)Cn3c(-c4cccs4)cc4ccccc43)CC2)c1,96,107,x,107
OCc1cn(-c2ccccc2)nc1-c1ccccc1,97,95,11,x
CN(C)S(=O)(=O)c1ccc(C(=O)OCC2CCCO2)cc1 (stereo not given),105,91,2,x
COc1ccc(NC(=O)C2CCCNC2=O)cc1 (stereo not given),101,89,-4,99
COC(=O)Cn1ncc2c3ccccc3n(Cc3ccccc3F)c2c1=O,95,99,10,109
O=c1cc(N2CCCC2)c2ccccc2o1,124,78,-1,x
Cc1cccc(C)c1OCCN1C(=O)C(C)CNc2ccccc21 (stereo not given),x,x,-12,101
COC(=O)c1cn(C(=O)c2ccco2)c2ccccc12,98,88,-2,107
N#CC1=C(N)N(c2ccc(S(N)(=O)=O)cc2)C2=C(CCC2)C1(C(F)(F)F)C(F)(F)F,119,82,x,105
O=C(O)C1CC(=O)N(Cc2ccccc2)C(=Nc2ccc(F)cc2)S1 (stereo not given),110,96,-4,x
Cc1cc(C(=O)N2CCNCC2)c(-c2ccccc2)o1,96,69,-26,103
O=C(c1cccn1-c1nnc(N2CCCCC2)s1)N1CCN(c2ccccc2)CC1,87,95,x,99
CC(=O)N1CCN(Cc2nc3cc(NC(=O)C4CCCCC4)ccc3n2C)CC1,x,x,-13,102
COc1ccc(-n2c(-c3ccco3)nc3c(cnn3-c3ccc(C)cc3)c2=O)cc1,99,84,-14,103
Cc1nn(C2CCS(=O)(=O)C2)c(Cl)c1/C=C/C(=O)OCc1csc(-c2ccccc2)n1 (stereo not given),90,98,1,x
COc1cc(-c2ccno2)ccc1S(=O)(=O)N1CCN(c2ccccc2F)CC1,100,88,x,98
O=C1c2ccccc2S(=O)(=O)NN1CC(=O)N1CCCc2ccccc21,72,91,-5,x
O=C(Nc1ncc(Cc2ccc(F)cc2)s1)c1csc2c1CCCC2,x,x,-25,105
Cc1ccc2[nH]cc(CCNC(=O)Cn3c(=O)c(=O)n(Cc4ccc(Cl)cc4)c4ccccc43)c2c1,x,x,-33,99
CCOC(=O)N1CCN(C(=O)CCN2c3ccccc3Sc3ccccc32)CC1,108,88,-6,x
O=C(CN1CCN(c2ccccc2Cl)CC1)NC(=O)Nc1ccccc1F,130,93,-3,x
CCSc1nc(-c2ccccc2)cc(C)c1C#N,82,65,-10,113
NNC(=O)CSc1c(-c2cccs2)[nH]c2ccccc12,82,75,-47,100
CCC(C)n1c(=N)c(C(=O)NCc2ccco2)cc2c(=O)n3cc(C)ccc3nc21 (stereo not given),104,81,-77,110
COc1cc(-c2noc(C)n2)cc(OC)c1OC,107,75,-8,107
CCOc1ccccc1CNC(=O)CN1C(=O)CCCc2ccccc21,110,98,x,106
COc1cc(/C=C(\C#N)c2ccc(Cl)cc2)ccc1OC(=O)C1COc2ccccc2O1 (stereo not given),104,85,-7,x
COC(=O)c1ccsc1NC(=O)/C=C\C(=O)O,86,88,-4,103
CCN(CC)C(=O)Cn1ncc2c1-c1cc(C)ccc1OC2,96,87,-13,97
CCOc1ccc(-n2c(N)c(C(=O)N3CCN(C)CC3)sc2=S)cc1,96,107,-48,94
Cn1c(=O)c2c(nc(N3CCOCC3)n2Cc2cccc(Br)c2)n(C)c1=O,96,85,-36,108
Cc1ccc(NC(=O)Cn2cnc3nc4c(cc3c2=O)CCCC4)cc1Cl,88,94,x,108

# One compound at a time (already shown). Order of screens: Sa growth 42C | Sa growth 42C second temp | HCMV UL50-53 inh | GIV Gai3 FP
# Profile of Cc1ccc2[nH]cc(CCNC(=O)Cn3c(=O)c(=O)n(Cc4ccc(Cl)cc4)c4ccccc43)c2c1 = x | x | -33 | 99
# Profile of O=C(CN1CCN(c2ccccc2Cl)CC1)NC(=O)Nc1ccccc1F = 130 | 93 | -3 | x
# Profile of CCOc1ccc(-n2c(N)c(C(=O)N3CCN(C)CC3)sc2=S)cc1 = 96 | 107 | -48 | 94

# (cont.)
SMILES,Sa growth 42C,Sa growth 42C second temp,HCMV UL50-53 inh,GIV Gai3 FP
CN1CCC(=NOC(=O)c2ccc(Cl)cc2)CC1,92,76,-4,102
O=S(=O)(c1ccc(F)cc1F)N1CCC2(CC1)Nc1ccc(Cl)cc1-n1cccc12,x,x,-23,104
Nc1nc(NCc2c(F)cccc2Cl)nn1-c1ccccc1,90,95,x,104
CCN(CC)S(=O)(=O)c1cccc(C(=O)OCN2C(=O)c3ccccc3C2=O)c1,103,92,-3,x
O=C(c1ccc(Br)cc1)N1CCN(CCc2ccccn2)CC1,x,x,7,105
COc1ccc(-c2c3c(=O)n(C)c(=O)n(C)c3c3n2C(C)(C)COC3)cc1,86,77,-19,100
CCOc1ccc(S(=O)(=O)Nc2cc(C(=O)O)ccc2N(CC)Cc2ccccc2)cc1,x,x,-10,100
Cc1nc2cccnc2n1C1CCN(C(=O)Nc2ccc(Cl)cc2)CC1,92,79,x,103
COc1ccc(-c2nn3c(C)nnc3s2)cc1OC,81,82,-27,104
O=S(=O)(NC1CCCCCC1)c1ccccc1,99,99,9,x
CCCCN(CCCC)CCCNC(=O)c1cc(-c2ccc(Cl)s2)nc2ccccc12,92,73,-24,107
O=C(c1ccc2c(c1)N(Cc1ccc(F)cc1)C(=O)c1ccccc1S2=O)N1CCN(c2ccccc2)CC1 (stereo not given),109,94,-2,108
CSc1nc(CSc2nnc(-c3ccccc3)n2-c2ccc(Cl)cc2)cc(=O)[nH]1,123,89,5,x
Cc1ccc(-c2nc3nc(C)cc(Nc4cccc(O)c4)n3n2)cc1,x,x,-8,107
Cc1cccc(OCC(=O)Nc2ccc(-c3nc4ccccc4o3)cc2)c1C,106,92,-11,101

# Three compounds already listed, sorted by formula weight, smallest number first:
SMILES,Sa growth 42C,Sa growth 42C second temp,HCMV UL50-53 inh,GIV Gai3 FP
O=S(=O)(NC1CCCCCC1)c1ccccc1,99,99,9,x
COc1ccc(-c2nn3c(C)nnc3s2)cc1OC,81,82,-27,104
CCCCN(CCCC)CCCNC(=O)c1cc(-c2ccc(Cl)s2)nc2ccccc12,92,73,-24,107

# New compounds follow.
SMILES,Sa growth 42C,Sa growth 42C second temp,HCMV UL50-53 inh,GIV Gai3 FP
Cc1cc(=O)[nH]c(SCC(=O)c2cccs2)n1,80,90,x,102
COc1ccc(CCNc2ncnc3c2oc2ccccc23)cc1OC,x,x,-8,108
CN(C)S(=O)(=O)c1ccc2c(c1)N(CC(=O)N1CCc3ccccc3C1)CCS2,x,x,-20,109
Cc1ccc(CN(Cc2ccco2)C(=O)COc2cc(C)c(Cl)c(C)c2)cc1,98,92,6,102
Cc1c(C(=O)NC2=NCCS2)sc2nc3n(c(=O)c12)CCCCC3,99,86,-38,x
Cc1ccc(CNC(=O)CCc2nc3cccnc3n2Cc2ccccc2)cc1,101,71,-11,109
Cc1nn(C(=O)NCCC(C)C)c2ccccc12,x,x,15,100
CC(O)C(Nc1ncnc2ccccc12)C(=O)O (stereo not given),85,83,-41,104
CCN(CC)c1nc2c3c(nc4c(c3c1C#N)CC(=O)N4c1cc(Cl)cc(Cl)c1)NC(C)=N2,105,90,-2,x
CN(Cc1ccccc1)S(=O)(=O)c1ccc(F)cc1,110,102,-15,100
Cn1c(SCc2ccc(F)cc2)nc2ccc(C(=O)NCCc3ccc(S(N)(=O)=O)cc3)cc21,x,x,-11,103
COn1c(=O)c(-c2ccc(I)cc2)[n+]([O-])c2ccccc21,124,99,-79,114
Cn1c(Cc2nnc3n2-c2ccccc2SC3)nc2ccccc21,107,99,-23,x
Cc1ccc(S(=O)(=O)NC(=O)N(C)c2ccccc2)cc1,97,97,-19,x
O=C(NC1CCCc2ccccc21)C1CCCN(c2ccnc(-c3cccc(F)c3)n2)C1 (stereo not given),x,x,-8,104

# Random excerpt: 4 entries already listed, in no set order.
SMILES,Sa growth 42C,Sa growth 42C second temp,HCMV UL50-53 inh,GIV Gai3 FP
CN(Cc1ccccc1)S(=O)(=O)c1ccc(F)cc1,110,102,-15,100
Cc1ccc(CN(Cc2ccco2)C(=O)COc2cc(C)c(Cl)c(C)c2)cc1,98,92,6,102
CC(O)C(Nc1ncnc2ccccc12)C(=O)O (stereo not given),85,83,-41,104
Cc1cc(=O)[nH]c(SCC(=O)c2cccs2)n1,80,90,x,102

# Other results
SMILES,Sa growth 42C,Sa growth 42C second temp,HCMV UL50-53 inh,GIV Gai3 FP
COc1ccccc1NC(=O)Cn1c(=O)n(CCCCCC(=O)NCc2ccccc2)c(=O)c2sccc21,96,88,13,101
CCOC(=O)C(=O)Nc1nnc2n1CCS2,96,83,x,100
CC(=O)Nc1ccc(C(=O)OCC(N)=O)cc1,90,100,-2,x
O=C(COC(=O)c1ccc(Oc2ccccc2)cc1)Nc1ncccn1,99,87,-20,x
Cc1cccc(NC(=O)c2sc(-n3nc(C)c(CCC(C)C)c3C)nc2C)c1C,101,93,21,103
COC(=O)c1cc(CSc2cccc[n+]2[O-])oc1C,90,94,14,x
COC(=O)c1cc2nc(C)cc(C(F)(F)F)n2n1,116,98,-41,103
O=C(CSc1nc2ccccc2o1)NCc1ccc(F)cc1,99,93,-28,x
O=C(CCCN1CCSc2ccccc21)N1CCN(c2ccc(F)cc2)CC1,x,x,-10,104
O=C(CSc1nc2c([nH]c3ccccc32)c(=O)n1-c1ccccc1)Nc1ccccc1,110,92,x,104
Cc1cn(C2OC(COC(=O)c3ccccc3)C(O)C2O)c(=O)[nH]c1=O (stereo not given),84,90,1,x
O=C(c1ccccc1)c1ccc2[nH]c(=O)c(=O)[nH]c2c1,85,89,-27,101
COc1cccc(C(=O)NCCc2cc3ccc(OC)cc3[nH]c2=O)c1,87,80,-19,107
N#CC1=C(N)C(C#N)(C#N)C(c2cccs2)C=C1C1CC1 (stereo not given),115,94,-14,x
Cc1ccc(NC(=O)CN2C(=O)CCSc3ccccc32)cc1,x,x,-17,104
COc1ccc2oc(C(=O)N(C)Cc3nc4ccccc4c(=O)[nH]3)c(C)c2c1,86,88,-19,x
O=c1[nH]/c(=C/c2ccco2)c(=O)[nH]/c1=C\c1ccco1,77,88,-18,x
CCn1c(=O)c2cc(C(=O)NCCc3ccc(Cl)cc3)sc2c2ccccc21,116,98,-13,106
Cc1c(C(=O)N2CCCC2)oc2c1-c1nn(CC(=O)NC(C)c3ccccc3)cc1CC2 (stereo not given),120,86,x,105
COC(=O)CC(=O)CSc1nc(C)cc(C)c1C#N,90,65,3,104
O=C1C(=O)N(C2CCN(S(=O)(=O)c3ccccc3)CC2)CCN1Cc1cccc(F)c1,x,x,-11,96
COCc1[nH]nc2c1C(c1ccc(OCC(N)=O)c(OC)c1)C(C#N)=C(N)O2 (stereo not given),102,88,-8,x
Cc1ccc(C2=Nc3ccccc3N(CC(=O)NCc3ccccc3Cl)C(=O)C2)cc1C,93,62,x,98
Cc1ccc(NS(=O)(=O)c2ccc3[nH]c4c(c3c2)CCCCCC4)cc1C,105,68,x,102
CC(NCCCO)c1ccccn1 (stereo not given),93,82,-26,99
CCc1ccc(-n2c(=O)c3cccnc3n2CC(=O)N(CC)c2cccc(C)c2)cc1,103,58,-28,105&109
CCCCN(C)c1nnc(NC(=O)Nc2cccc(C)c2)s1,112,97,x,107
COc1ccc(CNC(=O)CCC(=O)N2Cc3cccc(OC)c3Oc3ncccc32)cc1,x,x,3,111
CN(C)/C=C/C(=O)c1ccco1,72,68,-34,95
Cc1cc2cc(CNS(=O)(=O)c3ccccc3)ccc2n1C,103,87,x,99
COCCN1C(=O)c2ccccc2C(C(=O)NCCCN2CCC(C)CC2)C1c1ccc(F)cc1 (stereo not given),133,91,x,98
CC1Oc2ccccc2N(CC(=O)O)C1=O (stereo not given),104,88,-2,x
Cc1cccc(NC(=O)Cn2c(=O)n(CCCC(=O)NCc3ccc4c(c3)OCO4)c(=O)c3ccccc32)c1,88,84,-34,107
COC(=O)c1cc(S(=O)(=O)Nc2nn(C)c3cccc(F)c23)oc1C,105,98,-11,109
